GLA inh pH 4.5: qHTS Assay for Inhibitors of Human alpha-Galactosidase at pH 4.5. 230,000 tested, under 10 active. purified enzyme, 4-MU-alpha-Gal fluorescence, pH 4.5. activity change, negative = inhibition, % at 105 µM. Alpha-galactosidase A (Homo sapiens), P06280; inconclusive = small, poorly fitted or top-dose-only inhibition, or a rising curve; inactive = flat fitted curve, though single readings scatter; no compound was filed as active;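 further: 0% = full activity with enzyme and -100% = basal without enzyme; dose as in the result columns while the protocol names 77 µM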
Rango release inh: qHTS Assay for Inhibitors of RanGTP induced Rango (Ran-regulated importin-beta cargo) - Importin beta complex dissociation. Snurportin-1 (Homo sapiens) + GTP-binding nuclear protein Ran (Homo sapiens) + Importin …. Biochemical FRET Rango-importin beta, RanGTP-induced dissociation. Potency, µM (series often up to 46.1 µM), for inactives: at the highest dose activity change, negative = inhibition. 340,000 compounds, 0.071% hits. AID 540253, 2011; active means falling FRET ratio curve, often poorly fitted, with flat reads before Ran was added; inconclusive means other falling curves, or compound fluorescence or quenching; inactive means flat or rising ratio curve;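 further: potency means the concentration at half of the fitted maximal effect; % of control where 0% means no effect; nearly all actives have a fitted effect of over 45% in size; -100% = wells without RanGTP and RCC1; the record marks most hits as doubtful in a second field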
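Compounds preincubate 5 min with complex of recombinant Rango and importin beta in PBS with 1 mM DTT. Ran (0.6 uM) loaded with 2 mM GTP plus 0.2 uM RCC1 starts dissociation; FRET is recorded 45 min later.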
Rango-impB inh: qHTS Assay for Inhibitors of Rango (Ran-regulated importin-beta cargo) - Importin beta complex formation | Potency, µM (highest dose often 92.2 µM), for the others: at the highest dose inhibition of complex formation | 340,000 compounds, 0.031% hits | Rango CFP/YFP FRET sensor + importin beta, 45 min | Importin subunit beta-1 (Homo sapiens), Q14974; active = rising FRET ratio curve, often small or poorly fitted; inconclusive = mostly compound fluorescence or quenching in the first reads; inactive = flat curves in all reads;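 further: potency means the concentration at half of the fitted maximal effect; 0% = DMSO wells and 100% = buffer wells lacking importin beta; nearly all actives have a fitted effect of over 15% in size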
Target sequence (Q14974 whole entry, looked up): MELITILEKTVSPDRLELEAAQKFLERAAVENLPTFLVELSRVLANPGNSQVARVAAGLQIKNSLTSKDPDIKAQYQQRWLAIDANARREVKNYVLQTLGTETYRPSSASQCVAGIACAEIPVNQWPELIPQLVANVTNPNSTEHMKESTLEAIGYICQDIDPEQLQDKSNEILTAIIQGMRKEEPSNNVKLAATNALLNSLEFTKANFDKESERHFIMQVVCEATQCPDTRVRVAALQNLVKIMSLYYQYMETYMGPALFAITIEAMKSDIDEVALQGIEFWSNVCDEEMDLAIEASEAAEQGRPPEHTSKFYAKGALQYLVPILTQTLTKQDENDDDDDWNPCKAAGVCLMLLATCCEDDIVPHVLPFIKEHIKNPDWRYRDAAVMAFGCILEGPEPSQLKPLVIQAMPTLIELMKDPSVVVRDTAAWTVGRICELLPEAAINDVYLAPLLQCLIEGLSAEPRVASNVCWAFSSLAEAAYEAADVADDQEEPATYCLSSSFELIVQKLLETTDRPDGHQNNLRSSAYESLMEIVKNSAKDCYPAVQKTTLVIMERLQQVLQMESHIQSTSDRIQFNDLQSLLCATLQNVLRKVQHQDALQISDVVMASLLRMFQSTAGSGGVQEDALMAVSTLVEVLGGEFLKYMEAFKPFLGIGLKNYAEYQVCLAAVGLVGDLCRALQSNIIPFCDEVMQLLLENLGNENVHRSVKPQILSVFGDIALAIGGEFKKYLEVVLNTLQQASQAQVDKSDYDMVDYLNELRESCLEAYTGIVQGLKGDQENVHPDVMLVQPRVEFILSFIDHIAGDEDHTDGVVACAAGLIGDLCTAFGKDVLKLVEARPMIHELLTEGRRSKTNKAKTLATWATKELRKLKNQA
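FRET biosensor (snurportin 1 IBB flanked by EYFP and cerulean), 50 nM, with compound 5 min, then 0.125 microM importin beta in PBS, 1 mM DTT, 0.02% Tween-20, 0.1% BSA. CFP/YFP ratio read after 45 min at room temperature; pre-read flags interference.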
miR-21 reporter: qHTS Assay for Modulators of miRNAs and/orActivators of miR-21 | HeLa miR-21 FLuc reporter, luciferase, 48 h | Potency, µM (titrated, usually from 38.3 µM), for the others: at the top dose reporter change, positive = more light | 340,000 tested, under 10 active | AID 2288, 2010; active = well fitted rising curve with a large enough effect; inconclusive = small, poorly fitted or top-dose-only effect; inactive = no such curve, though single readings can be large or run the other way;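 further: % of control where 0% means no effect; miR-21 action dims this reporter so a rising signal means less miR-21 action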
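Compounds were titrated across several concentrations (up to approximately 40 uM) and incubated 48 hours with HeLa miR-21-FLuc reporter cells (miR-21 target sequence downstream of FLuc, endogenous miR-21). Readout was firefly luciferase luminescence after lytic detection reagent.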
Starred values were filed as active, the others as inactive; ? = inconclusive; . = not tested or not shown; & = joins results of further samples. Only part of the results is shown; the hit share may differ from the screen's.

GLA inh pH 4.5	Rango release inh	Rango-impB inh	miR-21 reporter	SMILES
8	-10%	1.4%	-1%	Cc1cccc(CSCCNC(=O)CCSc2ccccc2)c1
-1	-2%	0.0%	-1%	COc1cccc(OCC(=O)NNC(=S)Nc2ccc(Cl)cc2Cl)c1
-8	?	-0.4%	-9%	CCOC(=O)c1ccccc1NC1c2ccccc2C(=O)N1c1cc(C)ccn1 (stereo not given)
.	-7%	-2.9%	.	COc1ccc(C=NN=C2c3ccccc3-c3ccccc32)cc1O
23	1%	-5.2%	-34%	O=c1c2ccccc2nc2ccccn12
.	-3%	0.1%	3%	CCn1cc(/C=C(\NC(=O)c2ccccc2OC)C(=O)NCCCn2ccnc2)c2ccccc21
-5	.	.	4%	C(=N\Nc1nc(Nc2ccccc2)nc(N2CCCCC2)n1)/c1ccco1
-11	-5%	0.2%	-5%&-8%	CCOc1ccc(CCNC(=O)CSc2cc(=O)n(C)c3cc(Cl)ccc23)cc1OCC
.	13%	0.2%	5%	Cn1c(COc2ccccc2)nnc1SCC(=O)Nc1ccc(N2CCOCC2)cc1
2	-11%	2.2%	6%	O=[N+]([O-])c1ccc(/C=N/Nc2nc(-c3ccccc3)c3cc(Br)ccc3n2)o1
4	-18%	-4.1%	-1%	O=C(CCCN1C(=O)c2ccccc2C1=O)N1CCC(c2ccccc2)C1 (stereo not given)
.	1%	-0.6%	3%	CCOc1ccc(S(=O)(=O)N2CCC(C(=O)NCc3cccnc3)CC2)cc1C
1	20%	-2.4%	-2%	COc1ccc(C2N=C(Nc3ccc(C)cc3)Nc3nc(C)cc(=O)n32)cc1 (stereo not given)
.	-20%	0.7%	.	O=C(COc1ccccc1)N(Cc1nnc(-c2ccccc2Cl)o1)C1CC1
.	5%	-2.3%	.	CCN(c1ccccc1)S(=O)(=O)c1ccc(Cl)c(C(=O)N2CCCC2)c1
.	17%	3.7%	.	O=C(NCc1cccnc1)c1ccc(Br)o1
.	-10%	3.8%	.	COc1ccc(-c2cnc(SCCNC(=O)c3ccc4c(c3)OCO4)[nH]2)cc1
4	4%	-0.9%	20%	NC(=O)NC(=O)COC(=O)CCCSc1nc2ccccc2s1
.	-9%	0.5%	.	O=C(COC(=O)c1ccc(F)c([N+](=O)[O-])c1)NC(=O)NCc1ccccc1
.	-14%	-2.9%	1%	COc1ccccc1N(C(=O)c1snc(C(N)=O)c1N)C(C(=O)NCc1ccccc1)c1ccc(O)cc1 (stereo not given)
6	0%	1.7%	-8%	Cn1nnnc1SCC(=O)NCCc1ccc(Cl)cc1
4	-7%	-0.5%	-28%	C/C(=N\NC(=S)Nc1ccc(C)cc1)c1cccc(N)c1
.	-3%	-0.8%	-12%	Cc1c(C(=O)N2CCN(CCc3ccccn3)CC2)oc2ccc(Cl)cc12
.	-8%	0.2%	2%	CCC(=O)N(CCc1ccccc1)Cc1cc2cccc(C)c2[nH]c1=O
.	6%	0.7%	4%	CC1CCCC(NS(=O)(=O)c2cccc3nsnc23)C1C (stereo not given)
12	2%	4.3%	-33%	CNC(=O)c1cc2ncc(C(F)(F)F)cc2s1
.	-8%	-0.5%	24%	CN(CC1CCCO1)S(=O)(=O)c1ccc(C(=O)Nc2ccc([N+](=O)[O-])cc2)cc1 (stereo not given)
.	-9%	2.6%	0%	COc1ccc(CO[C@@H]2O[C@H](CO)[C@@H](O)[C@H](O)[C@H]2NC(C)=O)cc1OC
0	2%	?	?	O=C1/C(=C\c2cccnc2)CN(Cc2ccccc2)C/C1=C\c1cccnc1
.	-23%	-0.5%	2%	COc1ccc(CNC(=O)CSc2nnc(NC(=O)C3CC3)s2)cc1

3 entries out of the list above, ordered by their value in Rango release inh, low to high:
GLA inh pH 4.5	Rango release inh	Rango-impB inh	miR-21 reporter	SMILES
.	-9%	0.5%	.	O=C(COC(=O)c1ccc(F)c([N+](=O)[O-])c1)NC(=O)NCc1ccccc1
.	-8%	-0.5%	24%	CN(CC1CCCO1)S(=O)(=O)c1ccc(C(=O)Nc2ccc([N+](=O)[O-])cc2)cc1 (stereo not given)
.	-3%	0.1%	3%	CCn1cc(/C=C(\NC(=O)c2ccccc2OC)C(=O)NCCCn2ccnc2)c2ccccc21

Fetched one by one from the list above, 6 records:
GLA inh pH 4.5	Rango release inh	Rango-impB inh	miR-21 reporter	SMILES
-5	.	.	4%	C(=N\Nc1nc(Nc2ccccc2)nc(N2CCCCC2)n1)/c1ccco1
-1	-2%	0.0%	-1%	COc1cccc(OCC(=O)NNC(=S)Nc2ccc(Cl)cc2Cl)c1
1	20%	-2.4%	-2%	COc1ccc(C2N=C(Nc3ccc(C)cc3)Nc3nc(C)cc(=O)n32)cc1 (stereo not given)
.	17%	3.7%	.	O=C(NCc1cccnc1)c1ccc(Br)o1
.	-23%	-0.5%	2%	COc1ccc(CNC(=O)CSc2nnc(NC(=O)C3CC3)s2)cc1
8	-10%	1.4%	-1%	Cc1cccc(CSCCNC(=O)CCSc2ccccc2)c1

Next results:
GLA inh pH 4.5	Rango release inh	Rango-impB inh	miR-21 reporter	SMILES
.	-3%	-2.1%	.	O=C1CSC(=S)N1Cc1cccs1
8	1%	-0.4%	0%	Cc1ccc(OCc2nnc(SC(C)C(=O)O)n2Cc2ccccc2)cc1 (stereo not given)
0	-17%	-4.9%	2%	CC(=O)Nc1ccc(NC(=O)c2ccccc2S(=O)(=O)c2ccccc2[N+](=O)[O-])cc1
-1	8%	-2.1%	0%	CCN1CCN(S(=O)(=O)c2cccc3nsnc23)CC1
.	0%	-0.5%	.	Cc1ccc(-n2ccnc(SCC(=O)NC3CCCC3)c2=O)cc1F
.	11%	-1.3%	-9%	Cc1c(O)ccc2c(=O)c(Oc3ccccc3)coc12
6	-9%	0.0%	-5%	CC(C)CC(OC(=O)c1ccco1)C(=O)NC1CCCCC1 (stereo not given)
1	-5%	0.3%	-3%	O=C1CC(c2ccco2)Cc2nc(Nc3nc(-c4ccccc4)c4ccccc4n3)ncc21 (stereo not given)
-4	1%	-4.4%	-16%	C/C(CC(=O)NC12CC3CC(CC(C3)C1)C2)=N\NC(=O)Cc1cccs1
0	20%	-3.9%	-2%	CCc1cccc(CC)c1NC(=S)NCCc1ccc(O)c(O)c1
-14	13%	2.7%	0%	C=C(C)CSC1=C(C#N)C(c2ccsc2)CC(=O)N1 (stereo not given)
6	-13%	-1.4%	-1%	CC(C)C(NC(=S)Nc1ccccc1)C(=O)O (stereo not given)
.	-13%	?	.	Cc1cc(=O)n2c3c(c4c(cc13)c(CN(C)C)cc(=O)n4C)OC2
5	6%	-0.2%	-4%	COC(=O)c1c(C)oc(C)c1S(=O)(=O)NCC1CC1
12	22%	0.8%	0%	c1ccc2c(c1)[nH]c1c(N3CCOCC3)ncnc12
-3	0%	-0.8%	-1%	O=C1CC(N2CCN(c3ccccc3)CC2)C(=O)N1Cc1ccc(Cl)cc1 (stereo not given)
.	-9%	-0.5%	4%	COc1cc2c(cc1OC)C(c1cc3cc(C)ccc3[nH]c1=O)N(C(=O)c1ccco1)CC2 (stereo not given)
.	1%	1.7%	3%	COc1ccc(CCNC(=O)C2CCCN2C(=O)Nc2ccc(C)cc2)cc1OC (stereo not given)
6	1%	5.3%	-1%	COC(=O)c1cc(NC(=O)C2CC=CCC2C(=O)O)cc(C(=O)OC)c1 (stereo not given)
1	-6%	-0.7%	14%	CCOC(=O)c1nc(N2CCN(C(=O)OCC)CC2)c2c3c(sc2n1)CCCC3
?	20%	-1.6%	1%	CC1=CC(C)(C)N(C(=O)CNC2CCCCC2)c2cc(C)ccc21
-11	0%	0.7%	1%	Cc1ccc(-n2c(-c3ccco3)n[nH]c2=S)cc1
-3	-10%	-3.9%	-2%	O=C(NC(=S)NCCCN1CCOCC1)c1ccc([N+](=O)[O-])cc1
.	-3%	0.0%	0%	Nc1c(Cl)ncnc1NCc1cccnc1
0	-11%	-1.5%	1%	CCN(CC)S(=O)(=O)c1ccc(NC(=O)COC(=O)CN2C(=O)c3ccccc3C2=O)cc1
4	8%	?	7%	CCOC(=O)Cn1c2c(c(=N)c3ccccc31)CCC2
13	-5%	0.2%	0%	Cc1cc(C2C(C#N)=C(N)Oc3n[nH]c(C)c32)c(C)s1 (stereo not given)
1	-15%	-0.1%	-1%	Cc1cc(C)cc(C(=O)NCC(=O)OCC(=O)c2cc(C)n(CC(F)(F)F)c2C)c1
.	-3%	-3.3%	.	COc1ccccc1N(C)S(=O)(=O)c1ccc(C)c(C(=O)Nc2nccs2)c1
-1	1%	-5.3%	-5%	CCC(=O)Nc1ccc(Oc2ccc3c(c2)C(=O)NC3=O)cc1

New compounds follow.
GLA inh pH 4.5	Rango release inh	Rango-impB inh	miR-21 reporter	SMILES
.	-4%	-1.1%	.	F[B-](F)(F)c1cc2cc(Br)ccc2s1
.	-15%	-4.3%	.	OC[C@H]1O[C@@H](n2cnc3c(NC4CCCC4)nc(Cl)nc32)[C@H](O)[C@@H]1O
.	-10%	-1.0%	-4%	Cc1cc(C)c(C(=O)COC(=O)Cn2c(C)csc2=O)cc1C
-10	-10%	-2.9%	0%	CN(C)c1nc(Nc2ccc(Cl)cc2)nc(OCC#N)n1
.	-2%	-0.6%	.	Cc1nc2cc(-c3cccs3)[nH]n2c(=O)c1C
.	-7%	-1.5%	.	CC(C)(C)OC(=O)N1CCN(C(=O)c2[nH]cnc2C(=O)Nc2ccc(Cl)cc2)CC1
.	3%	0.4%	.	Cc1noc(C)c1NC(=O)Nc1ccc2c(c1)C(=O)N([C@H](C)CO)C[C@H](C)[C@@H](CN(C)S(=O)(=O)c1ccc(F)cc1)O2
-4	-7%	5.0%	-23%	COc1ccc(-c2cc(C(=O)O)c3ccccc3n2)c(OC)c1
1	12%	-2.8%	-1%	CCCCNC(=O)N1CCN(S(C)(=O)=O)CC1
.	-19%	0.2%	.	COc1ccc(NC(=O)/C(N=Nc2cccc(S(=O)(=O)Nc3ccc(SC(F)F)cc3)c2)=C(\C)O)cc1
0	1%	1.0%	-41%	Cc1cc(NC(=O)Nc2ccccc2F)ccc1Br
1	5%	-3.1%	-1%	O=C(O)C1CCC(N2C(=O)C3CCCCC3C2=O)CC1 (stereo not given)
-16	-13%	6.9%	2%	COc1ccc(NS(=O)(=O)c2cc([N+](=O)[O-])ccc2N/N=C\c2c(C)[nH]c3ccccc23)cc1
.	3%	2.9%	.	COc1ccc(C2(C)NC(=O)N(CC(=O)NCC(=O)Nc3ccc(F)c(F)c3F)C2=O)cc1OC (stereo not given)
3	-12%	1.4%	-8%	C=CCn1c(SC2CCOC2=O)nc2sc(C)c(C)c2c1=O (stereo not given)
-11	-14%	?	-3%	Nc1nc2n(n1)C(c1cccc(Cl)c1)CC(c1ccc(F)cc1)N2 (stereo not given)
.	0%	-0.1%	.	O=C(NCCc1c[nH]c2ccccc12)C(=O)Nc1cc2c3c(c1)CC(=O)N3CCC2
4	15%	-0.2%	3%	CS(=O)(=O)c1ccc(C(=O)N2CCc3ccccc3C2)cc1
.	-19%	?	-10%	COc1ccc(NC(=O)Cc2ccsc2)c(OC)c1
3	-1%	1.6%	-1%	O=C(COC(=O)CN1C(=O)c2ccccc2C1=O)Nc1ccc(S(=O)(=O)N2CCCC2)cc1
0	2%	-1.4%	0%	CCc1cc(C(=O)OC)c(NC(=O)CC2SC(N)=NC2=O)s1 (stereo not given)
.	-4%	-0.8%	-5%	COc1ccc(CCN2CC(C(=O)NC3CCOCC3)CCC2=O)cc1 (stereo not given)
2	-10%	2.5%	-1%	COc1ccc2ccccc2c1C1CC(=O)N2CN(C)CSC2=C1C#N (stereo not given)
.	-3%	0.0%	.	O=C(c1cc([N+](=O)[O-])ccc1N1CCOCC1)N1CCN(S(=O)(=O)c2cc(Cl)ccc2Cl)CC1
-9	3%	?	-2%	Cc1cccc2c1CC(C)(C)N=C2C1=C(O)CCCC1=O
3	2%	?	-5%	CC(=O)Nc1cccc(-c2csc(N)n2)c1
2	-7%	-0.2%	-6%	O=C1CC(c2ccccc2)CC(O)=C1C=NCc1ccco1 (stereo not given)

Compound activity deposited in PubChem by National Center for Advancing Translational Sciences (NCATS).
